# From PubChem
# YjeE inh: inhibitors of E. coli YjeE (TsaE) | Potency, µM | AID 605 | purified YjeE, fluorescence polarisation of a bound ADP probe | P0AF67 | hit rate 0.05% among 71,000; active = well fitted falling curve; inconclusive = weaker or top-dose-only fall, or a rising curve; inactive = flat or poorly fitted curve;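 also: top concentration of the series not given in the record; excess ADP was the control for the full effect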
#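 Purified YjeE (10 uM) with BODIPY Texas Red-labeled ADP probe (2 uM); compounds pin-transferred, 15 min at room temperature. Binding inhibition read as decreased fluorescence polarization; ADP titration as control.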
# PK Bst: modulators of Bacillus stearothermophilus pyruvate kinase | partly purified Bacillus stearothermophilus pyruvate kinase, luminescence ATP production; ribose 5-phosphate activator present at AC10 | Potency, µM | hit rate 1.2% among 51,000 | AID 361; in the data active means potency below about 11 µM; inconclusive means mostly about 12 µM to 25 µM; inactive means weaker than that;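 the screen sought inhibitors and activators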;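 also: potency is read from the fitted curve at half-maximal effect; scaled between full activation by ribose 5 phosphate and full inhibition by luteolin; about four in five hits inhibit and the cells do not say which; series up to 57 µM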
# Starred values were filed as active, the others as inactive; i = inactive; ? = inconclusive; / = no result given. Only part of the results is shown; the hit share may differ from the screen's.
# Second line of a record – YjeE inh, PK Bst
Nc1nc(NC(=O)c2cccnc2)nn1-c1ccccc1
    i, >57
CC(C)NC(=O)c1ccccc1NC(=O)CCS(=O)(=O)Cc1ccccc1
    i, >57
CCCCCC/C(=N/O)c1ccccn1
    i, >57
CC(Oc1ccccc1)C(=O)OCC(=O)NC(=O)NCc1ccco1 (configuration not stated)
    i, >57
Cc1cc(C)c2nc(N3CCCC(C(=O)N4CCC(C(N)=O)CC4)C3)sc2c1 (configuration not stated)
    i, i
Nc1ccn(-c2ccccc2)c(=O)c1
    i, >57
COc1ccc(C(=O)C2CCN(S(=O)(=O)c3ccc4c(c3)OCCO4)CC2)cc1
    i, >57
Cc1ccc(NC(=O)c2cnc3scc(C)n3c2=O)c(C)c1
    i, /
CC1CCN(Cc2ccc(NC(=O)CC3Oc4ccccc4NC3=O)cc2)CC1 (configuration not stated)
    i, /
CCCCC(CC)CNC(=O)CCS(=O)(=O)c1cccc2nsnc12 (configuration not stated)
    i, >57
CCOCC(=O)Nc1c(C(=O)OCC)oc2ccccc12
    i, >57
Cc1ccc(C(C)n2cc(C(=O)NCc3ccncc3)nn2)cc1 (configuration not stated)
    i, >57
Cc1ccc(OCc2ccc(C(=O)N3CCOCC3)cc2)cc1C
    i, >11.4
CC1(C(=O)NCc2cccnc2)CCC(=O)N1CCc1ccccc1 (configuration not stated)
    i, /
COc1cccc(-c2cc(C(=O)N3CCN(Cc4ccccc4)CC3)no2)c1
    i, >57
O=C1NC(=S)SC1=C1CCCCCC1
    i, >57
O=C(NCc1ccccc1F)C1CCCN1C(=O)NCc1ccccc1 (configuration not stated)
    i, >57
CC1(COc2ccc(C[C@H]3SC(=O)NC3=O)cc2)CCCCC1
    i, /
Cn1c2c(c(=O)n(C)c1=O)CN(Cc1ccco1)CN2
    i, /
O=C(Nc1nc2ccccc2[nH]1)C1CCCO1 (configuration not stated)
    i, /

# Some of the entries so far, as tab-separated lines:
SMILES	YjeE inh	PK Bst
CC(Oc1ccccc1)C(=O)OCC(=O)NC(=O)NCc1ccco1 (configuration not stated)	i	>57
Cc1cc(C)c2nc(N3CCCC(C(=O)N4CCC(C(N)=O)CC4)C3)sc2c1 (configuration not stated)	i	i
Nc1ccn(-c2ccccc2)c(=O)c1	i	>57

# (cont.)
# Second line of a record – YjeE inh, PK Bst
Cc1cc(C(=O)Cn2nnc(-c3ccc(Cl)cc3)n2)c(C)n1CC1CCCO1 (configuration not stated)
    i, >57
Clc1ccccc1-c1nc(-c2cccnc2)no1
    i, ?
CCn1c(SCC(=O)Nc2cc(C)c(Cl)cc2OC)nnc1-c1ccco1
    i, >57
COc1ccc(CNC(=O)CCc2nc(-c3ccccc3F)no2)c(OC)c1
    i, >57
N#Cc1ccc(CN2CCC3(CCNCC3)CC2)cc1
    i, /
O=S(=O)(c1ccc2c(c1)OCCO2)N1CCC(n2nnc3cc(C(F)(F)F)ccc32)CC1
    i, >57
O=C1c2ccccc2C(=O)N1CCCOc1ccccc1
    i, >57
COc1ccc(C2CC(C(F)(F)F)n3nc(C(=O)O)cc3N2)cc1OC (configuration not stated)
    i, >57
COc1ccc(OC)c2c(C)cc(N3CCN(C(=O)c4ccc(F)cc4)CC3)nc12
    i, /
c1coc(-c2nnc3sc(-c4cccs4)nn23)c1
    /, 8.98*
Cc1cccc(-n2c(=O)[nH]c3c(C(N)=O)nc(CC(C)C)nc32)c1
    i, >57
CCOc1ccc(NC(=O)CSc2nc3c(c(=O)n2-c2ccccc2OC)SCC3)cc1
    i, /
O=S(=O)(NCCOc1ccc(F)cc1)c1ccc2c(c1)OCCO2
    i, >57
CCCOc1ccc(C(C)=O)cc1CSCCC#N
    /, >11.4
CCOC(=O)N1CCN(C(=O)CSc2ccccc2)CC1
    i, >57
O=C(CSc1ccc2nnc(-c3ccncc3)n2n1)N1CCc2ccccc21
    i, /
Oc1ccccc1C1=Nc2ncnn2C(c2ccccc2)C1 (configuration not stated)
    i, >57
O=C(NCC1CCCO1)c1c(O)c2c([nH]c1=O)CCCC2 (configuration not stated)
    i, >57
CNc1oc(-c2cccc3ccccc23)nc1C#N
    i, >57
COc1ccc(CNC(=O)CS(=O)Cc2nc(-c3ccc(C)cc3)oc2C)cc1 (configuration not stated)
    i, /
O=c1n(-c2cccc(Cl)c2)c(=O)n2n1CCC2
    i, >57
CCOC(=O)Cc1csc(NC(=O)COc2ccc(N(C)S(=O)(=O)c3cccs3)cc2)n1
    i, >57
CCOC(=O)CCc1nc2ccccc2[nH]c1=O
    i, >57
O=C(Oc1ccc(Cl)c2cccnc12)N1CCOCC1
    i, ?
CC(SCc1ccccc1)C(=O)NC1CCCC1 (configuration not stated)
    i, >57
Cn1c(=O)c(-c2ccc(Cl)cc2)nc2cnc(N3CCOCC3)nc21
    i, /
O=C(c1ccco1)n1nc(-c2ccc(Cl)cc2)nc1NCc1ccco1
    i, >57
CCOC(=O)N1CCC(NC(=O)CCN2C(=O)COc3ccccc32)CC1
    i, >57
Cc1cc(C)nc(NCC(O)CNc2ccccc2Cl)n1 (configuration not stated)
    i, >57
Cc1ccc(N2C(N)=C(C#N)C(c3cccnc3)C3=C2CCCC3=O)cc1 (configuration not stated)
    i, >57
O=C(O)c1ccc(CN(c2ccccn2)S(=O)(=O)c2ccccc2)cc1
    i, /
Cc1cc(NC(=O)c2cc(C)on2)no1
    i, >57
O=C(CN1CCN(S(=O)(=O)c2cc(Cl)ccc2Cl)CC1)Nc1ccc2c(c1)OCCO2
    i, 4.74*
CCCOc1ccc(C2c3c(oc4cc(C)c(C)cc4c3=O)C(=O)N2CCCN2CCOCC2)cc1 (configuration not stated)
    i, /
Cc1cc(C(F)(F)F)nc(SCC(=O)Nc2ccccc2)n1
    i, >57
COC(=O)C1C(=O)CC(C)(O)C(C(=O)OC)C1c1ccc2c(c1)OCO2 (configuration not stated)
    i, /
CCCCc1c(O)n2c(nc3ccccc32)[nH]c1=O
    i, >57
COCc1nnc(NS(=O)(=O)c2ccc(Br)cc2)s1
    i, /
COc1ccc(CNc2ccnc(-c3cccnc3)n2)c(OC)c1
    i, /
Cc1onc(-c2ccccc2)c1C(=O)N1CCCN(C(=O)c2c(-c3ccccc3)noc2C)CC1
    i, >57

# Taken from above:
# PK Bst, CC(C)NC(=O)c1ccccc1NC(=O)CCS(=O)(=O)Cc1ccccc1 stands at >57
# PK Bst, O=c1n(-c2cccc(Cl)c2)c(=O)n2n1CCC2 stands at >57
# PK Bst, COc1ccc(C2CC(C(F)(F)F)n3nc(C(=O)O)cc3N2)cc1OC (configuration not stated) stands at >57
# PK Bst, Cc1cc(C(=O)Cn2nnc(-c3ccc(Cl)cc3)n2)c(C)n1CC1CCCO1 (configuration not stated) stands at >57
# PK Bst, Cc1onc(-c2ccccc2)c1C(=O)N1CCCN(C(=O)c2c(-c3ccccc3)noc2C)CC1 stands at >57

# Next compounds
# Second line of a record – YjeE inh, PK Bst
CCCn1c(O)c(CN2CCCCC2)c(C)c(C#N)c1=O
    i, >57
O=C(NC1CCCCCCC1)C1CCC(CNc2c(N3CCCC3)c(=O)c2=O)CC1 (configuration not stated)
    i, /
O=C(C1CCN(S(=O)(=O)N2CCOCC2)CC1)N1CCN(Cc2ccc3c(c2)OCO3)CC1
    i, >57
Cc1ccc(S(=O)(=O)NCC(c2cccnc2)N(C)C)cc1 (configuration not stated)
    i, >57
Cc1nnc(NC(=O)CCSc2ccccc2)s1
    i, >57
Cc1ccc(S(=O)(=O)NCC2CCC(C(=O)NCCCN3CCOCC3)CC2)cc1 (configuration not stated)
    i, ?
O=C(O)c1cc(Cl)cc(Cl)c1
    i, /
CCN(CC)C(=O)COc1ccc(Br)cc1Cl
    i, >57
Cc1nc2ccccn2c1P(=Nc1ccccc1)(N(C)C)N(C)C
    i, >57
COc1ccc(-c2cc(C(F)(F)F)n3nc(C(=O)Nc4cc(C)on4)cc3n2)cc1OC
    i, >57
Nc1nonc1-n1nnc(C(=O)O)c1-c1cccs1
    i, >57
CN(C(=O)c1ccncc1)c1nnc(-c2cccnc2)s1
    i, >57
CCCN(CCC)CCCNC(=O)CC(C(=O)N1CCc2ccccc21)n1ccnc1 (configuration not stated)
    i, >57
c1ccc2c(Nc3ccncc3)nc(-c3ccoc3)nc2c1
    i, /
COCCOC(=O)C1=C(C)N=C2SCCC(=O)N2C1c1ccc(OC(=O)c2ccco2)cc1 (configuration not stated)
    i, /
Cc1cc(C)n2nc(C(=O)OCC(=O)c3cc(C)n(C)c3C)nc2n1
    i, >57
CCCn1c(C)cc(C(=O)CSc2nnc3n(CCC)c(=O)c4ccccc4n23)c1C
    i, >57
COc1cc(NC(=O)Nc2cccc(Cl)c2)c(OC)cc1NC(=O)CN1CCCCC1
    i, >57
CC(=O)N1CCC2(CC1)CCN(c1cccc(-c3ccccc3)c1)CC2
    i, /
Cc1cnc(CNc2ncncc2-c2ccccc2C)cn1
    i, /

# Filtered by structure, those above with a CF3 group.
# Second line of a record – YjeE inh, PK Bst
O=S(=O)(c1ccc2c(c1)OCCO2)N1CCC(n2nnc3cc(C(F)(F)F)ccc32)CC1
    i, >57
COc1ccc(C2CC(C(F)(F)F)n3nc(C(=O)O)cc3N2)cc1OC (configuration not stated)
    i, >57
Cc1cc(C(F)(F)F)nc(SCC(=O)Nc2ccccc2)n1
    i, >57
COc1ccc(-c2cc(C(F)(F)F)n3nc(C(=O)Nc4cc(C)on4)cc3n2)cc1OC
    i, >57

# Remaining list, next part
# Second line of a record – YjeE inh, PK Bst
O=c1cc(CNC2CCCCC2)c2ccccc2[nH]1
    i, >57
O=C(c1cccc(F)c1)N1CCN(Cc2ccco2)CC1
    i, /
Cc1cc(NC(=O)CSCCc2ccncc2)no1
    i, /
CC1CCc2c(sc(NC(=O)c3ccc(Cn4cc(Br)cn4)o3)c2C(N)=O)C1 (configuration not stated)
    i, >57
COc1ccccc1CNC(=O)Cn1cc2c(n1)CCCC2
    i, /
O=C(NCCCN1CCOCC1)c1ccco1
    i, /
Cc1cccc(OCCCn2ccnc2)c1
    i, >57
CC1=C(C(=O)N(C)CCC#N)C2(CCCCC2)OC1=O
    i, /
Nc1ncnc2nc(SCCN3CCCCC3)[nH]c12
    i, >57
CCc1ccccc1N1CCN(S(=O)(=O)c2cc(OC)ccc2OC)CC1
    i, >57
CCOc1ccc(NC(=O)c2ccc3c(c2)N(Cc2ccc(F)cc2)C(=O)CS3=O)cc1 (configuration not stated)
    i, /
C=CCOc1ccc(C2C(C(=O)c3ccco3)=C(O)C(=O)N2CCCN(CC)CC)cc1 (configuration not stated)
    i, >57
CCn1c(SCC(=O)N2CCOCC2)nc2c(c1=O)SC(C)C2 (configuration not stated)
    i, >57
COC(=O)c1cc(OC)c(OC)c(OC)c1NC(=O)c1ccc(S(=O)(=O)N(C)C)cc1
    i, >57
Fc1c(F)c(C(F)(F)F)c(F)c(F)c1N1CCN(c2ccc3nnc(C(F)(F)F)n3n2)CC1
    i, /
O=C(CCCc1nc(-c2ccc(Cl)cc2)no1)N1CCOCC1
    i, >57
CC(C)Cn1cnc2c(SCc3ccccn3)nc(N)nc21
    i, /
C=CCN1C(=O)C(O)(CC(=O)c2ccc(-n3cccc3)cc2)c2ccccc21 (configuration not stated)
    i, >57
C[N+](C)(C)CCNC(=O)c1c(O)c2c([nH]c1=O)CCCC2
    i, >57
Cc1cccc2cc(C(c3nnnn3Cc3ccccc3)N3CCN(C)CC3)c(=O)[nH]c12 (configuration not stated)
    i, >57
CCOC(=O)N1CCN(C(=O)Nc2ccc3oc(C)nc3c2)CC1
    i, >57
CCS(=O)(=O)N1CCC(C(=O)OCC(=O)c2ccc(Br)cc2)CC1
    i, >57
COC(=O)c1cc2c([nH]c3ccccc32)c(C)n1
    i, ?
COc1ccc2[nH]c(-c3ccccc3)c(CCNC(C)=O)c2c1
    i, /
COc1ccc(OC)c(CNC(=O)C2CCN(C(=O)N(C)C)CC2)c1
    i, >57
CCCOc1ccc2oc(=O)c3c(c2c1)CCCN3C(=O)CN1CCCC(C(=O)OCC)C1 (configuration not stated)
    i, >57
NS(=O)(=O)c1ccc(S(=O)(=O)NCCc2ccccc2)cc1
    i, /
COc1ccc(OC)c(N/C(=N\c2nc(C)cc(C)n2)NC(=O)c2ccco2)c1
    i, >57
Cc1cccc(C)c1NC(=O)Nc1cccs1
    i, >57
CN(C)c1ncc2nc(-c3cc(F)cc(F)c3)c(=O)n(C3CC3)c2n1
    i, /
O=C(c1ccco1)N1CCC2(CC1)CCN(c1ccccn1)CC2
    i, /
Cc1cccc(C)c1OCC(O)Cn1ccnc1C (configuration not stated)
    i, /
CCN1CCN(C(c2cccs2)C(C)NC(=O)c2ccccc2)CC1 (configuration not stated)
    i, /
O=C(NCC(c1cccnc1)N1CCOCC1)c1ccc2c(c1)OCO2 (configuration not stated)
    i, >57
O=C(NCCCN1CCOCC1)[C@@H]1CSC2c3ccccc3C(=O)N21 (some centres not stated)
    i, >57
O=C1CC(c2ccccc2)Cc2nc(NCc3ccco3)ncc21 (configuration not stated)
    i, 5.17*
O=C1CC(c2ccco2)CC2=C1C1c3ccccc3C(=O)N1c1ccccc1N2 (configuration not stated)
    i, /
CCS(=O)(=O)N1CCCC(C(=O)N2CCc3ccccc3C2)C1 (configuration not stated)
    i, >57
COC(=O)C(O)(CC(=O)Nc1cccc(SC)c1)C(F)(F)F (configuration not stated)
    i, /
Cc1ccc(S(=O)(=O)Nc2nonc2C)cc1
    i, >57
CCCCCNC(CC(=O)Nc1ccc(OC)cc1)C(=O)O (configuration not stated)
    i, >57
CC(C)(C)c1nnc2sc(SCCN3C(=O)c4ccccc4C3=O)nn2c1=O
    i, >57
CCOC(=O)c1cccnc1SCC(=O)NC(C)CC (configuration not stated)
    i, >57
